NPYLR7 ag – mosquito NPYLR7 agonism; HEK293T NPYLR7/Galpha15, GCaMP6s calcium fluorescence; activation, % at 10 µM; AID 1259423; actives 0.15% (n = 270,000); in the data active means activation above about 40%;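 further: 0% = vehicle and 100% = reference agonist at the receptor; some compounds past the cut are filed as inactive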
NPYLR7 ag max-min – further read-out of NPYLR7 ag, marked with its call; activation, %; measured here: Max-Min RFU normalised activation; some inactives read as strong as hits;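 span of the calcium signal over five minutes; 0% = vehicle and 100% = native peptide agonist; compound fluorescence can raise it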
* = called active by the depositor. The list is partial; rates above refer to the full screens.

Every second line gives: NPYLR7 ag | NPYLR7 ag max-min
> COc1cccc(OC)c1OCc1nc(C(=O)NCCN(C)C)cs1
    24 | 18
> Clc1cc(N2CCOCC2)nc(N2CCOCC2)n1
    3 | 1
> COCCc1nc2ccc(C(=O)NC(c3ccccc3)c3ccc(Cl)cc3)cc2o1 (stereo not drawn)
    2 | -2
> N=C1c2c(cc(=O)n3c2[nH]c2ccccc23)CN1Cc1ccccc1
    0 | -3
> CNC(=O)C1CCC(Cn2c(=O)c3sccc3n(CC(=O)Nc3cccc(OC)c3)c2=O)CC1 (stereo not drawn)
    6 | -4
> CN(C)C(=O)c1cccc(S(=O)(=O)N2CCC(OCc3ccccn3)C2)c1 (stereo not drawn)
    1 | -1
> Cc1cccc(NC(=O)NCCNc2ccc(Nc3ccncc3)nn2)c1C
    4 | 1
> COc1ccc(CN2CCN(Cc3cc(OC)c(OC)cc3[N+](=O)[O-])CC2)c(OC)c1
    14 | 9
> COc1cccc(CC(=O)Nn2cnc3scc(-c4ccccc4)c3c2=O)c1
    0 | -2
> O=C(Cn1cnc2c(c1=O)CCCN2)NCc1ccc(F)cc1
    0 | -3
> CC(=O)c1ccc(C(=O)N2CCc3c([nH]c4ccccc34)C2c2ccccc2F)s1 (stereo not drawn)
    2 | -2
> O=C(c1ccc(Cl)cc1[N+](=O)[O-])N1CCCCC1
    7 | 3
> CC(C)N(CCC(=O)N1CCN(c2ccccc2F)CC1)c1nc(Cc2ccc(F)cc2)ns1
    13 | 22
> O=C(CCN(Cc1ccco1)c1nc(-c2cccs2)nc2ccccc12)Nc1ccc(F)cc1
    28 | 32
> CC1(C(=O)NCc2ccc3c(c2)OCO3)CCN1CC1CC1 (stereo not drawn)
    1 | -3
> COc1ccc(C2CC(c3ccc(Br)cc3)=Nc3nnnn32)c(OC)c1 (stereo not drawn)
    8 | 3
> CC(C)(C)c1cc(CN2CC[C@@]3(O)CCCC[C@H]3C2)[nH]n1
    5 | 4
> O=C(c1ccc[nH]c1=O)N1CCN(Cc2nc3ccccc3n2Cc2ccccc2)CC1
    0 | -2
> Cc1ccc(C(=O)N2CCNC(=O)C2Cc2ccccc2)c(F)c1F (stereo not drawn)
    1 | 0
> CCOC(=O)NC(CNC(=O)c1cncc(Br)c1)CC(C)C (stereo not drawn)
    -1 | -1
> CCOc1cc2c(cc1CN1CCC(O)(c3ccc(C)cn3)CC1)CCC2
    9 | 0
> COc1ccc2c(c1)CCC/C2=N/Nc1ccccn1
    16 | 12
> Cc1ccc(CNC(=O)Cc2ccccc2F)s1
    4 | 2
> COCC(C)Nc1ncnc2c1c(-c1ccccc1)cn2-c1ccccc1 (stereo not drawn)
    0 | 1
> O=C(Nc1c(F)c(F)c(F)c(F)c1F)c1cnn2c3c(cnc12)CCCCC3
    1 | -1
> O=C1CCC(C(=O)N2CCOc3ccccc3C2)CN1Cc1ccccn1 (stereo not drawn)
    2 | 1
> COC(=O)[C@H](NC(=O)C1=C[C@@H](NC(=O)CS(=O)(=O)c2ccccc2)[C@@H](O)[C@H](O)C1)C(C)C
    -9 | -16
> CCOC(=O)c1[nH]ncc1-c1c(-c2ccccc2)ncn1C1CC=CC1
    4 | 4
> COCC(C)(C)C(=O)NCC1CCCN(C2CCCC2)C1 (stereo not drawn)
    8 | 5
> Cn1c(=S)[nH]c2cc(C(=O)N3CCCC4CCCCC43)ccc2c1=O (stereo not drawn)
    1 | 6

Reprinted from the part before: four compounds; new compounds follow.
Every second line gives: NPYLR7 ag | NPYLR7 ag max-min
> COC(=O)[C@H](NC(=O)C1=C[C@@H](NC(=O)CS(=O)(=O)c2ccccc2)[C@@H](O)[C@H](O)C1)C(C)C
    -9 | -16
> CCOC(=O)c1[nH]ncc1-c1c(-c2ccccc2)ncn1C1CC=CC1
    4 | 4
> COCC(C)(C)C(=O)NCC1CCCN(C2CCCC2)C1 (stereo not drawn)
    8 | 5
> Cn1c(=S)[nH]c2cc(C(=O)N3CCCC4CCCCC43)ccc2c1=O (stereo not drawn)
    1 | 6
> COc1ccc(Cl)cc1NC(=O)N1CCCC(C(=O)c2cccc(Cl)c2)C1 (stereo not drawn)
    -4 | -7
> Cc1sc2nc(CN(Cc3ccccc3)CC(O)COCC(C)C)[nH]c(=O)c2c1C (stereo not drawn)
    12 | 17
> CNC(=S)NCC(c1ccco1)N1CCCCC1 (stereo not drawn)
    1 | -3
> CCNc1ccnc(N2CCC(N(CC)CC)C2)n1 (stereo not drawn)
    7 | 9
> CN(C)c1ccc(N)cc1CN(CC1CC1)C(=O)c1ccc(F)cc1
    -4 | 5
> CC(=O)Nc1cccc(NC(=O)Cn2nc(-c3ccco3)c3sc(N4CCCCC4)nc3c2=O)c1
    0 | -2
> CCCS(=O)(=O)N1CCC(c2nnc(C(C)C)o2)CC1
    -19 | -20
> C=CCN1C(=O)NC(c2cccc(Cl)c2)C2=C1CN(CC(=O)N1CCN(c3ccccc3OCC)CC1)C2=O (stereo not drawn)
    -2 | 1
> Cc1cccc(N2CCCn3c2nc2c3c(=O)n(CCN3CCOCC3)c(=O)n2C)c1C
    17 | 18
> CC(C)N(C(=O)CN1CCC(C(=O)NCC(F)(F)F)CC1)c1ccccc1
    -1 | 4
> CCc1nc(C)c(C(=O)NC(C)C2CC3CCC2C3)s1 (stereo not drawn)
    1 | 2
> N#Cc1cccc(OCC[n+]2ccc3c(c2)CCCC3)c1
    2 | -1
> O=C(Nc1cc(C(F)(F)F)cc(C(F)(F)F)c1)NC(Cc1ccccc1)C(=O)Nc1nnc(-c2ccc(Cl)cc2)s1 (stereo not drawn)
    22 | 19
> COc1ccc(C(=O)Nc2ccc(-c3nc4ccccc4o3)c(O)c2)cc1OC
    -6 | -10
> CCCC1CCC(c2ccc(-c3nc(Cc4ccccc4)no3)cc2)CC1 (stereo not drawn)
    -3 | -7

In another format: entries from further up.
smiles	NPYLR7 ag	NPYLR7 ag max-min
COc1ccc(Cl)cc1NC(=O)N1CCCC(C(=O)c2cccc(Cl)c2)C1 (stereo not drawn)	-4	-7
Cc1sc2nc(CN(Cc3ccccc3)CC(O)COCC(C)C)[nH]c(=O)c2c1C (stereo not drawn)	12	17
CNC(=S)NCC(c1ccco1)N1CCCCC1 (stereo not drawn)	1	-3
CCNc1ccnc(N2CCC(N(CC)CC)C2)n1 (stereo not drawn)	7	9
CN(C)c1ccc(N)cc1CN(CC1CC1)C(=O)c1ccc(F)cc1	-4	5

Continued:
Every second line gives: NPYLR7 ag | NPYLR7 ag max-min
> Cc1ccc(COC2C[C@](OCc3cccc(Cl)c3)(C(=O)NCc3ccco3)C[C@H]3OC(C)(C)O[C@@H]23)cc1 (stereo partly drawn)
    5 | 3
> CCSCCNC(=O)c1ccc(-c2n[nH]c3c2CCCc2ccccc2-3)cc1
    6 | 0
> COc1cccc(CN2CCCn3cccc3C2c2ccccc2[N+](=O)[O-])c1 (stereo not drawn)
    -9 | 13
> Cc1cc(C(=O)N2CCC(O)(CN(C)C)C2)c2c(C)noc2n1 (stereo not drawn)
    5 | 5
> CCCC(C)CC(=O)Nc1c(S(C)(=O)=O)cnc2cc(C)nn12 (stereo not drawn)
    2 | 9
> CCCN(CC(=O)N(C)C)S(=O)(=O)c1ccc(OC(C)C)c(F)c1
    7 | 8
> CCn1c(C)cc(C)c(C(=O)NCc2cccnc2N2CCN(C)CC2)c1=O
    8 | 6
> CN1CCN2CCN(C(=O)c3ccc(CN4CCCC4)o3)CC2C1 (stereo not drawn)
    -4 | -4
> N#Cc1ccc(NCc2cccc(Cn3ccnc3)c2)nc1
    5 | 4
> COc1ccc(CCNC(=O)c2ccc(CSc3nc(Cl)cc(N4CCN(c5cccc(C(F)(F)F)c5)CC4)n3)cc2)cc1OC
    -4 | 4
> Cc1cc(S(=O)(=O)N2CCN(C)CC2)c(C)cc1Cl
    9 | 6
> Cc1noc(C)c1S(=O)(=O)NC(C)C1CCCO1 (stereo not drawn)
    3 | 3
> COc1ccc(C)cc1-n1cnnc1CN
    11 | 9
> CC1c2cc(O)c(O)cc2CCN1C(=O)CC(C)(C)CC(=O)O (stereo not drawn)
    3 | 1
> Oc1c(Cl)cc(CN2CCCC2)c2cccnc12
    8 | -1
> CC(C)c1ccc(NC(=O)CSc2nc(=O)n(CCCN3CCOCC3)c3c2CCC3)cc1
    0 | -3
> O=C(CCl)N1CCN(Cc2ccc(Cl)cc2)CC1
    2 | -3
> Cc1ccc(N2CC(CNC(=O)C(C)(C)C)OC2=O)cc1 (stereo not drawn)
    4 | 4
> COP1(=S)C(=C2N(C)c3ccccc3C2(C)C)C=Nc2c(C)nn(-c3ccccc3)c21 (stereo not drawn)
    6 | 13
> Cc1ccc(C=C2SC(=S)N(C3CCCCC3)C2=O)o1
    -1 | -4
> COc1cc2c(cc1CN1CCN(c3ncc(F)cn3)CC1)OCCCO2
    5 | 3
> Oc1ccc(N2CCN(c3nnnn3-c3ccccc3)CC2)cc1
    16 | 22
> CCN(CC)Cc1cnc2c(C(=O)NC3CCCCC3)cnn2c1
    29 | 20
> CCNC(=O)O[C@H]1C(=O)N(C)C2(CCN(C(=O)C3CCCCC3)CC2)[C@@H]1C(=O)NC
    -2 | 6
> CCOc1ccc(OCC(=O)Oc2coc(CSc3nc(C)cs3)cc2=O)cc1
    -7 | -11
> Cc1nnc2sc(Cc3c(F)cccc3Cl)nn12
    1 | 1
> COc1cc2c(cc1OC)C1CN(C(=O)Nc3c(F)c(F)c(F)c(F)c3F)CC(=O)N1CC2 (stereo not drawn)
    14 | 3
> CCCCCNC(=O)c1ccc(-n2nc(C)cc2C)cc1
    3 | 2
> COc1ccc(C2Nc3ccccc3N=C3CC(c4ccccc4)CC(=O)C32)cc1OC (stereo not drawn)
    -6 | -5
> COc1ccc(-c2nnc(NC(=O)C(C)C)s2)cc1OC
    -6 | -10
> COc1ccc(C(C)C)cc1S(=O)(=O)N1C[C@H]2C[C@H](O)[C@H](O)C[C@H]2C1
    4 | 3
> COCCn1c(-c2ccccn2)nc2cc(NC(C)=O)cc(C(=O)N3CCN(C(C)C)CC3)c21
    26 | 12
> O=C(c1ccc(CSc2ccc(F)cc2F)cc1)N1C2CCC1CC(Oc1ccc(F)cc1F)C2 (stereo not drawn)
    -10 | -10
> Cc1nnc(SC(C)C(=O)Nc2cccc3ccccc23)s1 (stereo not drawn)
    9 | 2
> Cn1cccc1/C=N\NC(=O)CSc1nc2ccccc2n1Cc1ccccc1
    -15 | -18
> COCCNCc1nccn1Cc1cccc(OC)c1
    5 | 3
> Cc1nc(-c2ccccc2)sc1C(=O)NNS(=O)(=O)c1ccccc1Cl
    1 | -2
> CCn1cc(S(=O)(=O)c2ccc(F)cc2)c(=O)c2cc(C)ccc21
    -5 | -8
> O=C(OCc1ccccc1)N1CCN(c2cc(-c3ccccc3)nc3ncnn23)CC1
    14 | 10
> COc1ccc(CCN2CC(NC(=O)c3cc(C(C)C)[nH]n3)CC2=O)cc1 (stereo not drawn)
    0 | -2
> COc1ccc(/C=C/C(=O)NC(c2ccc(S(C)(=O)=O)cc2)c2cccc(N(C)C)c2)cc1 (stereo not drawn)
    4 | -3
> C#CCn1c(=NC(=O)c2ccc(S(C)(=O)=O)cc2)sc2cc(F)ccc21
    16 | 18
> N#Cc1c(NC(=O)Cn2nc(-c3cccs3)oc2=O)sc2c1CCCCC2
    5 | 3
> CC(C)Cn1c(CN2C[C@H]3C[C@H](O)[C@H](O)C[C@H]3C2)nc2ccccc21
    2 | -3
> Cc1cc(C)c(/C=N\NC(=O)CC(=O)N/N=C\c2c(C)cc(C)cc2C)c(C)c1
    6 | 10
> CCc1nnsc1C(=O)Nc1ccc(S(N)(=O)=O)cc1
    13 | 10
> CN(Cc1ccc(F)cc1F)c1ccc2nnc(C3CC3)n2n1
    -1 | -2
> CCn1cc(C(=O)N2CCCC(CO)(Cc3ccccc3C)C2)cn1 (stereo not drawn)
    7 | 10
> O=c1[nH]c(CCC(F)(F)F)nc2ccsc12
    1 | 405
> CC(C)NC(=O)c1nnc2n1CCN(Cc1ccc(Cl)c(F)c1)C2
    5 | 1
> CCOc1ccccc1N(CC(=O)NC(C)(C)C)S(=O)(=O)c1ccc(C)cc1
    -2 | -3
> CSc1ccc(-c2nccn2CC2CCCOC2)cc1 (stereo not drawn)
    7 | 7
> CN1CCCC[C@]2(C[C@H](C(=O)O)[C@H](c3ccco3)N2C(=O)C2CCCC2)C1=O
    4 | 13
> COCC(=O)N(Cc1c(-c2ccccc2)noc1N1CCCCC1)CC(C)C
    -1 | 1
> O=C(NC1CCN(c2ccccc2C(=O)N2CCOCC2)CC1)C1CCCC1
    2 | 2
> Cc1nc(CN2CCCC(N(C)Cc3cn4ccccc4n3)C2)no1 (stereo not drawn)
    2 | 1
> O=C(CC12CC3CC(CC(C3)C1)C2)NCCS(=O)(=O)N1CCCC1
    3 | -2
> CC(C)N(Cc1nccn1C)C(=O)C(=O)c1cccs1
    2 | -2
> Cc1ccc(C)c(Cc2c(C)nc(C)nc2N2CCN(C(=O)c3cccc(Cl)c3)CC2)c1
    1 | 8
> Cc1ccnc(NC(=O)c2ccc(=O)n(Cc3cccc(C(F)(F)F)c3)c2)c1
    4 | 2

More compounds.
Every second line gives: NPYLR7 ag | NPYLR7 ag max-min
> O=C1C(=O)N(CCN2CCOCC2)C(c2cccnc2)C1=C(O)c1ccc(Br)cc1 (stereo not drawn)
    5 | 4
> COc1ccc2cc(C(N)=O)c(=Nc3ccc(C)cc3)oc2c1
    -9 | -15
> CC(=O)NCCc1ccc(C(=O)Cn2cnc3ccsc3c2=O)s1
    6 | 3
> O=C1C[C@H]2CC[C@@H](CN1)N2C(=O)C1CCN(c2ncccn2)CC1
    12 | 5
> COc1ccccc1-n1cc(C(=O)N2CCCC(O)(CN(C)C)CC2)cn1 (stereo not drawn)
    1 | 0
> CCc1[nH]c2c(CNC(=O)CC3CCS(=O)(=O)C3)cc(F)cc2c1C (stereo not drawn)
    6 | 4
> O=C(CN(Cc1ccc(F)cc1)C1CC1)Nc1nnc(-c2ccco2)o1
    1 | 0
> COc1cc(C2NC(=O)c3ccccc3N2C)cc2c1OCCO2 (stereo not drawn)
    4 | 2
> CCc1ccccc1N1CCN(C(=O)CCC(=O)NC2CCCC2)CC1
    -3 | -10
> O=C(CCc1nc2ccccc2[nH]c1=O)N1CCCC1c1ccccn1 (stereo not drawn)
    13 | 7

High-throughput results (PubChem BioAssay)
